From PubChem
Rango release inh = inhibition of RanGTP-driven Rango-importin beta dissociation | O95149+P62826 | Biochemical FRET Rango-importin beta, RanGTP-induced dissociation | Potency, µM (doses to about 46.1 µM), inactives show at the top dose activity change, negative = inhibition | 340,000 tested, 0.071% active | AID 540253; active means falling FRET ratio curve, often poorly fitted, with flat reads before Ran was added; inconclusive means other falling curves, or compound fluorescence or quenching; inactive means flat or rising ratio curve;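 also: potency is read from the fitted curve at half-maximal effect; % of control where 0% means no effect; nearly all actives have a fitted effect of over 45% in size; -100% = wells without RanGTP and RCC1; the record marks most hits as doubtful in a second field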
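Compounds preincubate 5 min with complex of recombinant Rango and importin beta in PBS with 1 mM DTT. Ran (0.6 uM) loaded with 2 mM GTP plus 0.2 uM RCC1 starts dissociation; FRET is recorded 45 min later.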
Rango complex inh = prevents formation of the Rango-importin beta complex; Q14974; Rango CFP/YFP FRET sensor + importin beta, 45 min; Potency, µM (doses to about 92.2 µM), inactives show at the highest dose inhibition of complex formation; 340,000 tested, 0.031% active; AID 540263; active = rising FRET ratio curve, often small or poorly fitted; inconclusive = mostly compound fluorescence or quenching in the first reads; inactive = flat curves in all reads;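 also: potency is read from the fitted curve at half-maximal effect; 0% = DMSO wells and 100% = buffer wells lacking importin beta; nearly all actives have a fitted effect of over 15% in size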
Target sequence (Q14974 whole entry, looked up): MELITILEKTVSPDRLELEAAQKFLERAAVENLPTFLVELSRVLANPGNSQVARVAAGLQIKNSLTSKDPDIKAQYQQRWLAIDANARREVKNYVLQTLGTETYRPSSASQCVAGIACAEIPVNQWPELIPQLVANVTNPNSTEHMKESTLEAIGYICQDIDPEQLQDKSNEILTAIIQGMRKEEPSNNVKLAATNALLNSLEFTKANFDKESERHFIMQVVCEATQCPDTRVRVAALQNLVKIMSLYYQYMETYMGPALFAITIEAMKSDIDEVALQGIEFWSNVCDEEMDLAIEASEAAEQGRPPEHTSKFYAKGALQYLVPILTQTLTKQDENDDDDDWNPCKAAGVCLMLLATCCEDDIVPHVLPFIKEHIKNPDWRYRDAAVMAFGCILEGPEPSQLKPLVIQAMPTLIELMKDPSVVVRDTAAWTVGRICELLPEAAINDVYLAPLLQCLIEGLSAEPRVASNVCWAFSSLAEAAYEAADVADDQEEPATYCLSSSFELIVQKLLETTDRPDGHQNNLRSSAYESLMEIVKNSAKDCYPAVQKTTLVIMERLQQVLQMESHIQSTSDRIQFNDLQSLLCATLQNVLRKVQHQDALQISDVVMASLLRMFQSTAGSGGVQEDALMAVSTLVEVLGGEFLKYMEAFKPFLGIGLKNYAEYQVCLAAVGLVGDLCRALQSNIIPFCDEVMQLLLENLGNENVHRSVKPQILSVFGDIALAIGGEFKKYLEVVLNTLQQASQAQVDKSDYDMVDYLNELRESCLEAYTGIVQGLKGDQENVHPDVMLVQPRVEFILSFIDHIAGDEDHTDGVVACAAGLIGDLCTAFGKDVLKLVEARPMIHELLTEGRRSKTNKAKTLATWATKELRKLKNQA
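Inhibition scored from the CFP 486 nm/YFP 530 nm FRET ratio 45 min after adding 0.125 microM importin beta to 50 nM Rango biosensor preincubated 5 min with compound (room temperature, PBS with DTT, Tween-20, BSA). No-importin wells as positive control.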
miR-21 FLuc = raises the signal of a miR-21 reporter | Potency, µM (highest dose often 38.3 µM), for the others: at the highest dose reporter change, positive = more light | HeLa miR-21 FLuc reporter, luciferase, 48 h | AID 2288 | 340,000 tested, under 10 active; active = well fitted rising curve with a large enough effect; inconclusive = small, poorly fitted or top-dose-only effect; inactive = no such curve, though single readings can be large or run the other way;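 also: % of control where 0% means no effect; miR-21 action dims this reporter so a rising signal means less miR-21 action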
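HeLa cells stably expressing CMV-driven firefly luciferase with a downstream miR-21 binding sequence, endogenously expressing miR-21, were treated with titrations (up to about 40uM final) for 48 hours at 37 degree Celsius. Luciferase luminescence was read after lysis.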
GLA inh pH 4.5 = blocks human alpha-galactosidase A at pH 4.5 | 230,000 tested, under 10 active | purified enzyme, 4-MU-alpha-Gal fluorescence, pH 4.5 | activity change, negative = inhibition, % at 105 µM; inconclusive = small, poorly fitted or top-dose-only inhibition, or a rising curve; inactive = flat fitted curve, though single readings scatter; no compound was filed as active;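 also: 0% = full activity with enzyme and -100% = basal without enzyme; dose as in the result columns while the protocol names 77 µM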
Active calls of the source: *; ? = inconclusive; / = not tested or not shown. An excerpt; rates above refer to the full screens.

SMILES	Rango release inh	Rango complex inh	miR-21 FLuc	GLA inh pH 4.5
CCOC(=O)c1c(C)[nH]c(C)c1S(=O)(=O)NCCc1ccc(SC)cc1	9%	-0.2%	6%	/
Cc1ccc(C(=O)OCC(=O)NCCNC(=O)COC(=O)c2ccc(C)s2)s1	-3%	-3.9%	/	/
CC(C(=O)c1ccccc1)C(O)c1ccccn1 (centres undefined)	8%	1.2%	/	/
CCN(CC)CCN(C(=O)c1ccc2c(c1)CCCC2)c1nc2cc(OC)c(OC)cc2s1	-13%	-3.8%	3%	/
Cc1ccc(-c2nn(-c3ccccc3)cc2CO)cc1	-11%	4.5%	-66%	/
NC(=O)NC(=O)c1nccnc1C(=O)O	23%	4.2%	2%	4
COc1ccc(-c2c(C)oc3c(CN4CCN(CCO)CC4)c(O)ccc3c2=O)cc1OC	6%	5.6%	-6%	3
O=C(COC(=O)c1cccs1)Nc1ccccc1	16%	-4.9%	-7%	-1
CC(C)CCN(C(=O)C1CCCC1)c1c(N)n(Cc2ccccc2)c(=O)[nH]c1=O	2%	-0.6%	/	/
CC(Oc1ccc2c(c1)oc(=O)c1ccccc12)C(=O)NC(Cc1c[nH]c2ccc(O)cc12)C(=O)O (centres undefined)	-17%	3.2%	-7%	/
CCOC(=O)C1=C(c2ccccc2)Nc2ncnn2C1c1ccc(C(=O)O)cc1 (centres undefined)	-26%	-1.9%	-1%	-5
O=C(O)c1ccc(NC(=O)c2ccc(COc3ccc(Cl)cc3)o2)cc1	5%	5.1%	-9%	/
CC(C)[C@@H]1NC(=O)c2cc([N+](=O)[O-])cc(I)c2NCCC[C@@H](C(=O)NC(CC(=O)O)C(N)=O)NC(=O)[C@H](CO)NC1=O (some centres undefined)	1%	-1.1%	-6%	-4
COc1ccc(Cc2nnc(NC(=O)C3CC(=O)N(c4ccccc4)C3)s2)cc1OC (centres undefined)	1%	3.2%	3%	/
COCC1CCN(Cc2cn(Cc3ccccc3)nc2-c2cc3ccccc3o2)CC1	2%	-3.4%	-3%	2
Cc1c(C(=O)NCc2ccc(F)cc2)c(-c2ccccc2)nn1-c1ccccc1	3%	-4.1%	1%	-3
COc1ccc(CN2C(=O)CC(C(=O)NCCc3ccc(S(N)(=O)=O)cc3)SC2=Nc2ccccc2)cc1 (centres undefined)	-4%	-0.1%	-14%	4
COc1ccc(C)cc1NC(=O)COC(=O)c1ccccc1SCC(=O)N1CCCC1	7%	-3.7%	/	/
Cc1nn(CCOc2ccccc2Cl)c(C)c1[N+](=O)[O-]	3%	4.5%	0%	/
Cc1ccc(NC(=O)CCNC(=O)c2ccco2)cc1F	-6%	3.4%	0%	-4
NC(=S)N=Nc1c(O)n(CCCl)c2ccc(Br)cc12	13%	0.5%	18%	-5
CCCn1c(SCC(=O)Nc2sc(C)c(C)c2C(=O)OCC)nc2c1c(=O)n(C)c(=O)n2C	-9%	-2.8%	-1%	2
COc1cccc(NC(=S)C(C#N)=C2N(C)c3ccccc3N2C)c1	11%	2.1%	2%	1
CC(CCc1ccccc1)NC(=O)COC(=O)c1ccc(NC(=O)CC#N)cc1 (centres undefined)	-18%	?	-1%	/
Cc1cc(C)c(C#N)c(SCC(=O)c2ccc(Cl)cc2Cl)n1	?	-0.4%	22%	-3
CCO[C@H]1OC(C(=O)NCc2nc3ccccc3[nH]2)=C[C@@H](C)[C@@H]1CCCO	-5%	0.6%	2%	5
O=C(CCSc1nnc(-c2ccco2)o1)Nc1ccc(Cl)cc1	18%	4.9%	-1%	4
Cc1ccc(CN2CC(C(=O)NC3CCCC(C)C3C)CC2=O)cc1 (centres undefined)	29%	-0.8%	/	/
CCCCCCC1(C)NC(=S)N(c2ccccc2)N1 (centres undefined)	-5%	-1.3%	-20%	4
O=C(CSc1ccc(-c2ccco2)nn1)NCCc1ccccc1	-6%	-2.3%	-2%	2
COc1cccc(C(=O)Oc2cc3c4c(c2)C(C)=CC(C)(C)N4C(=O)C3=O)c1	0%	4.7%	12%	-7
CCOc1ccc2nc(NC(=O)COc3ccc(N(C)S(=O)(=O)c4ccc(C)cc4)cc3)sc2c1	2%	3.3%	3%	-5
COc1cc(OC)c(-c2nn3c(C4CCCCC4)nnc3s2)cc1OC	-10%	-1.5%	-39%	1
Cn1c(CNC(=O)c2ccccc2F)nnc1SCc1ccc(F)cc1	-19%	-3.7%	-3%	-2
Cc1ccccc1NC(=S)N/N=C/C(C)c1ccccc1 (centres undefined)	-9%	0.2%	8%	-9
CCCN(CCC)CCCn1c(=O)[nH]c2ccccc21	-7%	-2.0%	5%	0
COCCn1c(SCCCC(=O)c2ccc(Br)cc2)nnc1-c1ccncc1	2%	-2.7%	18%	-2
O=C(O)/C(=C\c1cccc(F)c1)c1ccc(S(=O)(=O)N2CCCCC2)s1	-9%	-0.8%	-13%	5
CCOC(=O)CN1C(=O)C(C)(C)Oc2ccc(C(=O)Nc3ccccc3)cc21	12%	?	-22%	1
Cc1ccc(C)c(S(=O)(=O)N2CCN(C(=O)c3cnccn3)CC2)c1	-12%	3.4%	2%	6
CC(Oc1ccc2ccc(=O)oc2c1)C(=O)NC1CC(C)(C)NC(C)(C)C1 (centres undefined)	-22%	-3.6%	2%	/
CCCc1nc2c(s1)CCc1onc(-c3ccc(OC)cc3)c1-2	-11%	-2.7%	/	/
CC(C)=N/N=c1\scc(C)n1Cc1ccco1	-8%	-2.8%	-3%	0
CC1=CCC2C(=O)N(c3ccc(Br)cc3C)C(=O)C2C1 (centres undefined)	-18%	-2.8%	-1%	-6
Cc1ccc(S(=O)(=O)N2CCCCC2)cc1NC(=O)c1ccc(Br)o1	30%	-5.9%	/	/
c1ccc(Nc2nc(NCC3CCCO3)c3ccccc3n2)cc1 (centres undefined)	0%	?	?	-1
CC1CCC2(CC1)NC(=O)N(CC(=O)Nc1ccc3c(c1)OCCCO3)C2=O (centres undefined)	23%	?	/	/
Cc1cccc(CN(CC(=O)N/N=C/c2cccs2)S(=O)(=O)c2ccc(Cl)cc2)c1	-7%	-1.8%	-2%	-4

Grouped by structure, the entries above containing a nitro group on carbon.
SMILES	Rango release inh	Rango complex inh	miR-21 FLuc	GLA inh pH 4.5
CC(C)[C@@H]1NC(=O)c2cc([N+](=O)[O-])cc(I)c2NCCC[C@@H](C(=O)NC(CC(=O)O)C(N)=O)NC(=O)[C@H](CO)NC1=O (some centres undefined)	1%	-1.1%	-6%	-4
Cc1nn(CCOc2ccccc2Cl)c(C)c1[N+](=O)[O-]	3%	4.5%	0%	/

Next part.
SMILES	Rango release inh	Rango complex inh	miR-21 FLuc	GLA inh pH 4.5
Cc1c(OCC(=O)NCc2ccccn2)ccc2c3c(c(=O)oc12)CCCC3	13%	-1.0%	0%	/
O=C(NCCc1cccc(C(F)(F)F)c1)C1CCC(=O)N(C2CC2)C1 (centres undefined)	3%	-2.1%	-3%	/
Cc1noc(C)c1S(=O)(=O)N(C)C[C@H]1Oc2ccc(NC(=O)C3CCCCC3)cc2C(=O)N([C@H](C)CO)C[C@@H]1C	0%	-4.8%	/	/
O=C(CCC1CCCCC1)NCc1ccc(F)cc1	-13%	0.0%	-5%	4
Cc1ccc2nc(NC(=S)NC(=O)c3ccco3)sc2c1	20%	-2.5%	-73%	-14
CCc1cccc(C)c1NC(=S)NCC(c1cccnc1)N(C)C (centres undefined)	-9%	-4.0%	-3%	-5
CSc1ccc(S(=O)(=O)NCc2ccc(Cl)cc2Cl)cc1	-5%	0.1%	-6%	-7
C/C(=N\NC(=O)c1nnn(-c2nonc2N)c1CSc1ccccc1)c1cccnc1	-10%	-6.4%	-2%	/
Nc1nc(SCC(=O)Nc2ccc(S(N)(=O)=O)cc2)n[nH]1	3%	-3.2%	0%	10
Cc1ccc(/C=C/C(=O)NCc2ccncc2)cc1	-9%	-0.7%	-9%	5
CCc1nnc(SCC(=O)Nc2ccccc2)n1CC1CCCO1 (centres undefined)	5%	-2.1%	-2%	/
CCCn1cnc2scc(-c3ccc(C)c(C)c3)c2c1=O	30%	-1.5%	-8%	/
CCN1C=C(Cc2ccccc2C)C2=C(C1)C(c1ccccc1C)C(C#N)=C(N)O2 (centres undefined)	8.2µM*	?	7%	-8
Cc1cccc(C2=NNC(=O)C(c3ccc(Cl)cc3)C2)c1 (centres undefined)	3%	1.2%	1%	-14
O=C(Nc1cc(=O)[nH]c(=O)[nH]1)c1cccc(Br)c1	-10%	3.0%	26%	2
O=C(NCCCn1ccnc1)c1ccc(Cl)cc1[N+](=O)[O-]	4%	2.4%	-3%	3
Cc1nnc(C)c2c(C)n(-c3cccc4cccnc34)c(C)c12	/	/	-1%	9
COc1ccc(CC(=O)Nc2nnc(-c3cccc([N+](=O)[O-])c3)s2)cc1	-10%	3.5%	-11%	4
COCCN(C(=O)COC(=O)CSc1ccc(Cl)cc1)c1c(N)n(Cc2ccccc2)c(=O)[nH]c1=O	-1%	0.1%	/	/
O=C(COC(=O)c1ccc(O)cc1O)NC1CCS(=O)(=O)C1 (centres undefined)	3%	6.8%	1%	7
O=C(NCc1n[nH]c(=O)c2ccccc12)C1CC(=O)N(c2ccccc2)C1 (centres undefined)	-14%	7.8%	/	/
CCOC(=O)c1c(C)[nH]c(C)c1S(=O)(=O)N(C)CC(=O)N1CCN(c2ccc(OC)cc2)CC1	-4%	-0.7%	1%	/
O=C(Cc1c[nH]c2ccccc12)N1CCN(S(=O)(=O)c2ccc(Cl)cc2)CC1	2%	-2.0%	/	/
CC(=O)c1ccc(N2CCN(C(=O)C3CCN(S(=O)(=O)c4cccs4)CC3)CC2)cc1	20%	1.1%	9%	/

Shown as a markdown table: 4 of the compounds above
| structure | Rango release inh | Rango complex inh | miR-21 FLuc | GLA inh pH 4.5 |
| --- | --- | --- | --- | --- |
| O=C(NCCCn1ccnc1)c1ccc(Cl)cc1[N+](=O)[O-] | 4% | 2.4% | -3% | 3 |
| Cc1nnc(C)c2c(C)n(-c3cccc4cccnc34)c(C)c12 | / | / | -1% | 9 |
| COc1ccc(CC(=O)Nc2nnc(-c3cccc([N+](=O)[O-])c3)s2)cc1 | -10% | 3.5% | -11% | 4 |
| COCCN(C(=O)COC(=O)CSc1ccc(Cl)cc1)c1c(N)n(Cc2ccccc2)c(=O)[nH]c1=O | -1% | 0.1% | / | / |

The listing continues:
SMILES	Rango release inh	Rango complex inh	miR-21 FLuc	GLA inh pH 4.5
CCCN(CC(=O)Nc1cc(Cl)ccc1Cl)C(=O)c1ccccc1SCC(=O)N1CCCC1	-15%	?	/	/
Cc1ccc(N(C=NC#N)CC(=O)N2CCN(c3ccccc3)CC2)cc1	-1%	-0.8%	-1%	5
CC(C)(C#CC(O)(c1ccccc1)c1ccccc1)N1CCCCC1	0%	5.2%	-1%	/
O=C(/C=C/c1ccccc1[N+](=O)[O-])NC1CCCC1	12%	4.3%	-27%	-5
Cc1ccc(C(=O)C(OC(=O)CN2C(=O)c3ccccc3C2=O)c2ccccc2)cc1C (centres undefined)	3%	-1.0%	-1%	13
O=C(Nc1nc2ccccc2[nH]1)c1cccs1	0%	0.3%	-15%	4
CCN1CCN(C(=O)CN(c2ccccc2C)S(C)(=O)=O)CC1	1%	-1.7%	-2%	-8
CCN(Cc1ccccc1)C(=O)CSc1nc(C)cc(=O)[nH]1	-2%	6.0%	4%	7
O=C(CSc1nc2cccnc2n1Cc1ccccc1)NCc1ccco1	-1%	-3.4%	-3%	-5
O=C(NC1CCCc2ccccc21)c1cc(S(=O)(=O)N2CCOCC2)ccc1F (centres undefined)	-22%	-3.7%	-15%	-1
CCOc1cc(/C=N/NC(=O)c2cccc([N+](=O)[O-])c2)ccc1OS(=O)(=O)c1ccccc1	13%	-1.0%	5%	-5
Cc1nc2c3cnn(-c4ccccc4)c3ncn2n1	-6%	-1.8%	-20%	-1
Cc1ccc(N(CCC(=O)N2CCOCC2)S(=O)(=O)c2ccccc2)cc1	0%	0.5%	/	/
Cc1nn(CC(=O)Nc2ccccn2)c(C)c1Br	3%	3.0%	-1%	-1
O=C(COC(=O)CCS(=O)(=O)c1ccccc1)Nc1ccc(N2CCCCC2)cc1	17%	1.0%	/	/
Cn1c(=O)c(=O)n(C)c2cc(S(=O)(=O)CCC(=O)Nc3c(F)c(F)c(F)c(F)c3F)ccc21	-6%	-0.9%	-1%	/
COc1ccc(-c2sc(Nc3ccc(F)c(F)c3F)nc2CCC(=O)NN)cc1	0%	-4.1%	-21%	/
